Screens as filed in PubChem.
miR-21 FLuc – miR-21 reporter, rising signal. HeLa miR-21 FLuc reporter, luciferase, 48 h. Potency, µM (highest dose often 38.3 µM), inactives show at the highest dose reporter change, positive = more light. 340,000 tested, under 10 active. AID 2288; active = well fitted rising curve with a large enough effect; inconclusive = small, poorly fitted or top-dose-only effect; inactive = no such curve, though single readings can be large or run the other way;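 further: % of control where 0% means no effect; miR-21 action dims this reporter so a rising signal means less miR-21 action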
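Luminescence from a firefly luciferase reporter carrying a miR-21 binding site downstream, stably expressed under a CMV promoter in HeLa cells that make miR-21 endogenously, reports miRNA modulation after 48 h compound exposure up to approximately 40uM final.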
Rango complex inh – prevents formation of the Rango-importin beta complex. 340,000 tested, 0.031% active. Potency, µM (top dose mostly 92.2 µM), for the others: at the top dose inhibition of complex formation. AID 540263. Rango CFP/YFP FRET sensor + importin beta, 45 min; active = rising FRET ratio curve, often small or poorly fitted; inconclusive = mostly compound fluorescence or quenching in the first reads; inactive = flat curves in all reads;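 further: potency means the concentration at half of the fitted maximal effect; 0% = DMSO wells and 100% = buffer wells lacking importin beta; nearly all actives have a fitted effect of over 15% in size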
Target sequence (Q14974 whole entry, looked up): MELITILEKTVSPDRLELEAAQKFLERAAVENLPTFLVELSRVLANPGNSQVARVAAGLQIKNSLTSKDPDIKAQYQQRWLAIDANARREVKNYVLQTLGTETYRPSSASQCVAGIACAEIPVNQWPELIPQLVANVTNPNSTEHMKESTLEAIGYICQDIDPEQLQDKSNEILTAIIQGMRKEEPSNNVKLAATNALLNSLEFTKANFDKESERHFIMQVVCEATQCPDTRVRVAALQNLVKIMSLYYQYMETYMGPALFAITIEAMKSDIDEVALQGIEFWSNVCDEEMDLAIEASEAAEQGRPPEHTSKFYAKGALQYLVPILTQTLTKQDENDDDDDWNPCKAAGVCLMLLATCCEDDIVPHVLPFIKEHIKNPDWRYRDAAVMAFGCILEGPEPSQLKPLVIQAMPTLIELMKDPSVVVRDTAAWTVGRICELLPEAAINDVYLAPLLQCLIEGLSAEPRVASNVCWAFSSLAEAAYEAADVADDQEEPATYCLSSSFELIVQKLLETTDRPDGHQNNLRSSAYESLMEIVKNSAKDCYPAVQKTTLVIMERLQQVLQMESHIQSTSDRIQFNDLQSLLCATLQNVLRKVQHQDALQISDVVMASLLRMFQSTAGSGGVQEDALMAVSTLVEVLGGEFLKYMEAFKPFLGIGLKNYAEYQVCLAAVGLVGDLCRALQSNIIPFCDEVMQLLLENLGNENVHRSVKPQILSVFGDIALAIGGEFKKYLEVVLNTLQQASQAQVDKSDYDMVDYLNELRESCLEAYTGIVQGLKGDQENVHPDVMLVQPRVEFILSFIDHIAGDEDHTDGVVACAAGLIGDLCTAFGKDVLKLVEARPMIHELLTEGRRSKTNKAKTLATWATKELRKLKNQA
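FRET biosensor (snurportin 1 IBB flanked by EYFP and cerulean), 50 nM, with compound 5 min, then 0.125 microM importin beta in PBS, 1 mM DTT, 0.02% Tween-20, 0.1% BSA. CFP/YFP ratio read after 45 min at room temperature; pre-read flags interference.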
Rango release inh – prevents RanGTP from dissociating the Rango-importin beta complex; Biochemical FRET Rango-importin beta, RanGTP-induced dissociation; 340,000 tested, 0.071% active; Potency, µM (doses to about 46.1 µM), without a hit: top-dose activity change, negative = inhibition; O95149+P62826; AID 540253; active means falling FRET ratio curve, often poorly fitted, with flat reads before Ran was added; inconclusive means other falling curves, or compound fluorescence or quenching; inactive means flat or rising ratio curve;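 further: potency means the concentration at half of the fitted maximal effect; % of control where 0% means no effect; nearly all actives have a fitted effect of over 45% in size; -100% = wells without RanGTP and RCC1; the record marks most hits as doubtful in a second field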
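Rango (0.1 uM)–importin beta (0.25 uM) complex; RanGTP-RCC1 trigger; 45 min RT; CFP/YFP FRET read.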
GLA inh pH 4.5 – alpha-galactosidase A (human) inhibition, pH 4.5. P06280. purified enzyme, 4-MU-alpha-Gal fluorescence, pH 4.5. activity change, negative = inhibition, % at 105 µM. 230,000 tested, under 10 active; inconclusive = small, poorly fitted or top-dose-only inhibition, or a rising curve; inactive = flat fitted curve, though single readings scatter; no compound was filed as active;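 further: 0% = full activity with enzyme and -100% = basal without enzyme; dose as in the result columns while the protocol names 77 µM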
Starred values were filed as active, the others as inactive; ? = inconclusive; · = not tested or not shown; & = joins results of further samples.

SMILES	miR-21 FLuc	Rango complex inh	Rango release inh	GLA inh pH 4.5
Cc1cccc2c(CCN)c[nH]c12	0%	0.7%	7%	-9
CC12CCC3C(CC=C4CC(O)CCC43C)C1C/C(=C\c1cccc(F)c1)C2=O (configuration not stated)	-9%	-0.3%	7%	·
CCC1(CC)COP(=O)(OCC(Cl)CCl)OC1 (configuration not stated)	·	-0.1%	6%	·
CCOP(=S)(OCC)N1CC1	·	-2.0%	3%	·
COC(=O)C1C2CC[C@@H](CC1OC(=O)c1ccccc1)N2 (some centres not stated)	·	-0.2%	-8%	·
O=C(Nc1nc2ccccc2n1CCN1CCCC1)c1ccc(Cl)cc1	-43%	0.1%	0%	12
COc1cc(CC(=O)N2C[C@H]3C[C@@H](C2)c2cccc(=O)n2C3)cc(OC)c1OC	·	-0.3%	-2%	·
COc1ccc(C[C@H]2NC[C@H](O)[C@H]2OC(C)=O)cc1	·	0.4%	4%	·
COC(=O)C1=C(c2ccc(-c3ccccc3)c(F)c2)C[C@@H]2CC[C@H]1N2C(=O)NC1CCCCC1	·	0.5%	2%	·
CC1CC(C)CN(CC(=O)c2ccc(OC(F)F)cc2)C1 (configuration not stated)	-2%	-2.7%	-16%	-3
Cc1ccccc1CN1Cc2cnnn2-c2ccccc2C1C#N (configuration not stated)	·	4.8%	2%	·
COC(=O)CC(NC(=S)N1CC2C[C@@H](C1)Cn1c2cccc1=O)C(=O)OC (some centres not stated)	-1%	-1.0%	-5%	·
Cc1ccc(C(=O)C2CN3CCC2CC3)cc1 (configuration not stated)	-3%	-2.8%	7%	-5
CC1=NN(c2ccccc2)C(=O)C1/C=C1\C(=O)NC(=O)N(c2ccc(C)c(C)c2)C1=O (configuration not stated)	2%	4.3%	1%	-10
O=P1(Oc2ccccc2)CC=C[C@H](COCc2ccccc2)O1 (some centres not stated)	4%	2.4%	4%	-12
O=C(NCC(c1cccnc1)N1CCN(c2ccc(F)cc2)CC1)Oc1ccccc1 (configuration not stated)	0%	1.5%	25%	4
CCC(C)n1c(O)c(C=NCCN2CCOCC2)c(=O)[nH]c1=S (configuration not stated)	7%	1.0%	-3%	2
COCCCn1c(N)c(C(=O)Nc2sc3c(c2C(=O)OC)CCCC3)c2nc3ccccc3nc21	3%	?	?	-1
O=C(c1ccc(C(F)(F)F)cc1)C1CCCN(C2CCSCC2)C1 (configuration not stated)	5%	3.8%	17%	-5
O=[N+]([O-])c1cc(F)c(N2CCCC2)cc1Br	-9%	0.5%	14%	-4
COc1ccccc1NC1(C#N)CCCCC1	-1%	3.2%	2%	-6
COc1c(C)cc(C(=O)C2CCCN(Cc3cccc(C)n3)C2)cc1C (configuration not stated)	5%	-0.1%	-13%	5
COc1ccc(CCN(C)Cc2ccncc2)cc1OC	3%	-1.1%	9%	-2
CN(C)CC1CCCCC1=O (configuration not stated)	-12%	-2.1%	-12%	-2
COc1ccc(-n2c(-c3ccccc3[N+](=O)[O-])nc3ccccc3c2=O)cc1	-3%	-3.5%	-1%	·
SMILES	miR-21 FLuc	Rango complex inh	Rango release inh	GLA inh pH 4.5
COCc1c(CN)cnc(C)c1N	-4%	-0.7%	6%	-2
FCCN(CCF)c1cccc(Cl)c1	2%	-0.9%	-8%	4
Cc1cccc(-n2c(O)c(/C=C3/C(c4ccccc4)=Nc4ccccc43)c(=O)[nH]c2=O)c1	-5%	?	2%	1
O=C(O)C1C2CC3CC(C2)CC1(n1ncc(N2CCC4(CC2)OCCO4)c(Cl)c1=O)C3 (configuration not stated)	3%	1.8%	-10%	-5
CC(NC(C)(C)C)C(=O)c1cccc(Cl)c1 (configuration not stated)	1%	-3.6%	-4%	-3&-9&0
CCN(CC)P(=S)(c1c(C)nc2ccccn12)c1c(C)nc2ccccn12	13%	-2.4%	10%	5
CC(C)Oc1cccc(NC(=O)c2cccn(Cc3ccc4c(c3)OC(F)(F)O4)c2=O)c1	-3%	-4.2%	-4%	-15
CCOc1cc(/C=C2\C(=O)NC(=O)N(C)C2=O)cc([N+](=O)[O-])c1O	-4%	-0.8%	18%	-8
CCOC(=O)N(CC)c1ccc(C(O)(C(=O)OC)C(F)(F)F)cc1 (configuration not stated)	-9%	0.2%	12%	8
CC(=O)O[C@H]1CC[C@@]2(C)C(=CC[C@@H]3[C@@H]2CC[C@]2(C)C(=O)CC[C@@H]32)C1	·	2.0%	21%	·
c1ccc(CCNCc2cccs2)cc1	-21%	-2.5%	-5%	·
COc1ccc(N=C(C)c2c(O)[nH]c(=O)[nH]c2=O)cc1	-30%	-1.8%	9%	·
CCN(CC)C(=O)Cn1cc(C=C2C(=O)N(C)C(=O)N(C)C2=O)c2ccccc21	-1%	-0.8%	0%	·
C#C[C@@]1(O)CCC2C3CCC4=C/C(=N/OCC(=O)NC(CCC(N)=O)C(=O)O)CC[C@]4(C)C3CC[C@@]21C (some centres not stated)	-5%	?	0%	·
Cc1cccc(-n2c(CN3C(=O)c4ccccc4C3=O)nc3ccccc3c2=O)n1	·	6.4%	10%	·
C=C1C[C@]2(O)[C@@]3(C)CCC(=O)C(C)(C)C3=C(O)C(=O)[C@@]2(C)[C@@H]2C(=O)O[C@@](C)(C(=O)OC)C(=O)[C@@]12C	-27%	?	-20%	-5
OCCOCC#CCN1CCOCC1	-2%	0.4%	10%	8
COCCNP(=O)(c1ccccc1)c1nc2ccccc2s1 (configuration not stated)	-2%	·	·	12
O=C1OC(c2ccc(Br)cc2)=N/C1=C\N1CC2CC(C1)c1cccc(=O)n1C2 (configuration not stated)	1%	0.9%	17%	-16
O=P(Nc1ccccc1)(Oc1ccccc1)Oc1ccccc1	14%	-0.1%	-19%	2
O=c1cccc2n1CC1CC2CN(S(=O)(=O)c2cc(Cl)ccc2Cl)C1 (configuration not stated)	3%	-1.1%	0%	·
CC1CCCCN1CC(O)c1c[nH]c2ccccc12 (configuration not stated)	-1%	1.9%	3%	·
CN(C)CCNC(=O)c1cccn(Cc2cccc(C(F)(F)F)c2)c1=O	-10%	2.7%	16%	4
COc1ccc2c(c1)NP(=S)(c1ccccc1)N2C (configuration not stated)	·	5.8%	-14%	·
CCCOc1ccc(C(=O)NC(=S)N2C[C@H]3C[C@H](C2)c2cccc(=O)n2C3)cc1	-10%	-3.5%	-10%	·

Part of the list above, set out differently.
Sequence of screens: miR-21 FLuc	Rango complex inh	Rango release inh	GLA inh pH 4.5
- COCc1c(CN)cnc(C)c1N
    -4%	-0.7%	6%	-2
- FCCN(CCF)c1cccc(Cl)c1
    2%	-0.9%	-8%	4
- Cc1cccc(-n2c(O)c(/C=C3/C(c4ccccc4)=Nc4ccccc43)c(=O)[nH]c2=O)c1
    -5%	?	2%	1
- O=C(O)C1C2CC3CC(C2)CC1(n1ncc(N2CCC4(CC2)OCCO4)c(Cl)c1=O)C3 (configuration not stated)
    3%	1.8%	-10%	-5
- CC(NC(C)(C)C)C(=O)c1cccc(Cl)c1 (configuration not stated)
    1%	-3.6%	-4%	-3&-9&0
- CCN(CC)P(=S)(c1c(C)nc2ccccn12)c1c(C)nc2ccccn12
    13%	-2.4%	10%	5
- CC(C)Oc1cccc(NC(=O)c2cccn(Cc3ccc4c(c3)OC(F)(F)O4)c2=O)c1
    -3%	-4.2%	-4%	-15
- CCOc1cc(/C=C2\C(=O)NC(=O)N(C)C2=O)cc([N+](=O)[O-])c1O
    -4%	-0.8%	18%	-8
- CCOC(=O)N(CC)c1ccc(C(O)(C(=O)OC)C(F)(F)F)cc1 (configuration not stated)
    -9%	0.2%	12%	8
- CC(=O)O[C@H]1CC[C@@]2(C)C(=CC[C@@H]3[C@@H]2CC[C@]2(C)C(=O)CC[C@@H]32)C1
    ·	2.0%	21%	·
- c1ccc(CCNCc2cccs2)cc1
    -21%	-2.5%	-5%	·
- COc1ccc(N=C(C)c2c(O)[nH]c(=O)[nH]c2=O)cc1
    -30%	-1.8%	9%	·
- CCN(CC)C(=O)Cn1cc(C=C2C(=O)N(C)C(=O)N(C)C2=O)c2ccccc21
    -1%	-0.8%	0%	·

New compounds follow.
SMILES	miR-21 FLuc	Rango complex inh	Rango release inh	GLA inh pH 4.5
CC(=O)OC1CCC2(C)C(CCC3C4CC(N5CC5)C(C(C)=O)C4(C)CC(=O)C32)C1 (configuration not stated)	·	-0.9%	-3%	·
COC(=O)c1ccc(C(C(=O)NC2CCCCC2)N(CCN2CCOCC2)C(=O)Cc2cccs2)cc1 (configuration not stated)	-1%	0.5%	-1%	0
COC(=O)C1=C(c2ccc(-c3ccccc3)c(F)c2)C[C@@H]2CC[C@H]1N2C(=O)N1CCC(O)CC1	·	2.4%	5%	·
COC(=O)C1=C(c2c(C)noc2C)C[C@@H]2CC[C@H]1N2C(=O)NC1Cc2ccccc2C1	·	?	25%	·
CCOc1ccccc1-n1c(O)c(C=Nc2ccc(N(CC)CC)cc2)c(=O)[nH]c1=O	4%	?	?	-6
COc1ccc2c3c([nH]c2c1)C(C)NCC3 (configuration not stated)	-1%	?	-23%	4
CC(=O)Nc1ccc(C2CN(C)CC2C(=O)c2ccc(Cl)cc2)cc1 (configuration not stated)	-43%	2.3%	5%	4
CSC1=NP(=S)(SC)N(C)c2nc3n(c21)CCC3 (configuration not stated)	-1%	-0.7%	25%	-3
COc1ccc(CC(=O)N(C)C2CCCN(Cc3ccccc3F)C2)cc1OC (configuration not stated)	0%	1.7%	-8%	·
COC(=O)C1=C(c2ccc(Cl)c(C(F)(F)F)c2)C[C@@H]2CC[C@H]1N2C(=O)NCc1ccc2c(c1)OCO2	·	0.1%	1%	·
C=CCn1c(O)c(C(CC)=Nc2cccc(C(F)(F)F)c2)c(=O)[nH]c1=O	-2%	7.1%	-7%	-3
CC(C)[C@H]1C(=O)O[C@@H]2CCN3CC=C(COC(=O)[C@](C)(O)[C@]1(C)O)[C@H]23	-8%	-0.2%	6%	·
COc1c2c(cc3c1OCO3)CCN(C)C2	·	-6.0%	-8%	3
O=C(CCc1ccccc1)N1C[C@H]2C[C@@H](C1)c1cccc(=O)n1C2	0%	1.4%	-5%	·
COc1ccc(-c2[nH]ncc2CNC(C)Cc2ccsc2)c(F)c1 (configuration not stated)	-1%	-2.1%	21%	8
CC(N=Cc1c(O)n(C2CC2)c(=S)[nH]c1=O)c1ccccc1 (configuration not stated)	0%	2.4%	-10%	0
C=C1[C@H]2CC[C@H]3[C@]4(C)C[C@H](O[C@H]5O[C@H](CO)[C@@H](OS(=O)(=O)O)[C@H](OS(=O)(=O)O)[C@H]5OC(=O)CC(C)C)C[C@@H](C(=O)O)[C@H]4CC[C@]3(C2)[C@H]1O	·	-2.2%	-7%	·
O=[N+]([O-])c1cccc(CN2CC=C(c3ccc(F)cc3)CC2)c1	1%	3.0%	-5%	·
CC(C)[C@H](NC(=O)N1C[C@H]2C[C@@H](C1)c1cccc(=O)n1C2)C(=O)Nc1ccccc1F	-1%	0.4%	-10%	·
COC(=O)C1=C(c2ccc(OC(F)(F)F)cc2)C[C@@H]2CC[C@H]1N2C(=O)NCc1cc(C)oc1C(F)(F)F	·	1.2%	1%	·
N#CC(CCN1CCOCC1)(c1ccccc1)c1ccccc1	0%	-6.9%	1%	·
Cc1ccccc1NC(=O)c1cc(-c2ccccc2)n(CCCN2CCOCC2)c1C	2%	2.9%	8%	1
COc1c(C)cc(C(=O)C2CCCN(Cc3cccc(O)c3)C2)cc1C (configuration not stated)	18%	1.6%	-19%	·
N/C(=N\N=C/c1ccc(-c2ccc(O)c(C(=O)O)c2)o1)N[N+](=O)[O-]	0%	?	-24%	-26
CCC(C)N1C(=O)/C(=C/c2ccc3c(c2)CCN3CCCCl)C(=O)NC1=S (configuration not stated)	5%	?	?	4
NCC(=O)c1ccccc1	·	2.4%	11%	5
CCOc1ccc2c(c1)c(C(C)=O)c(C)n2Cc1ccco1	-1%	0.4%	-1%	-4
Cc1ccc2c(c1)CNc1ccccc1O2	-17%	-0.7%	2%	-7
CCOS(C)(=O)=O	·	-0.5%	-9%	·

Not all compounds are listed, so the mix of outcomes need not match the whole.
